D2 PAM = positive allosteric modulators of human D2 dopamine receptor. P14416. DiscoveRx D2 beta-arrestin cells, luminescence, 90 min; 100% = 57 uM dopamine signal. potentiation, % (test concentration not listed). actives 0.23% (n = 360,000). AID 624464; active = potentiation of 50% or more; inconclusive = 30% to 50%; inactive = 30% or less;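 also: compound concentration not given in the record; tested on top of an EC20 dose of dopamine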
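PathHunter beta-arrestin assay in DiscoveRx D2 cells. Compounds were added with an EC20 of dopamine (50 nM final) for 90 min at 37 deg C. Luminescence was read 1 h after detection reagent, with 57 uM dopamine as the EC100 control.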
TRPV1 potentiator = enhances activation of the human vanilloid receptor TRPV1. Q8NER1. TRPV1-expressing cells, Fluo-8 calcium influx, capsaicin EC20 potentiation; host cell line not named in the record; control for the full effect not named in the record. actives 0.02% (n = 320,000). potentiation, % at 8.33 µM; active means potentiation above 80%; inconclusive means 30% to 80%; inactive means below 30%; also: 0% is about no effect
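Cells expressing TRPV1 were dye-loaded with Fluo-8 and read kinetically: 10 s baseline, 3 min after compound (agonist portion), then 2 min after EC20 capsaicin (allosteric enhancer portion). Calcium-bound dye fluorescence at 480/520 nm.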
PINK1 modulator = PINK1 expression modulation; PINK1 immunofluorescence, high-content cytometry, 24 h; Potency, µM (titrated, usually from 76.6 µM), inactives show at the top dose activation (PINK1 increase), usual class: activators; actives 0.2% (n = 410,000); AID 624263; active = well fitted activation curve with a large enough effect; inconclusive = small, poorly fitted or top-dose-only effect; inactive = flat fitted curve, though single readings scatter; cell line not stated here;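 also: potency is read from the fitted curve at half-maximal effect; % of control where 0% means no effect; nearly all actives have a fitted effect of over 65% in size; a mitochondrial uncoupler was the plate control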
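Decision-based qHTS: stable cells, 24 h exposure to five compound concentrations, CCCP as control. Fixed cells stained for PINK1 plus nuclear, mitochondrial and cell markers, cytometer read.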
Six1-Eya2 blk = blocks human Six1 binding to Eya2. AlphaScreen GST-Six1/His-Eya2 binding, biochemical; stronger effect = lower value; control for the full effect not named in the record. activity change, % (no concentration beside the values). actives 0.56% (n = 360,000); in the data active = activity change below about -65%; inconclusive = about -30% to -65%; inactive = above about -30%; also: % is scaled to controls: 0 for no effect and ±100 for the full control effect; compound concentration not given in the record
Target sequence (O00167 whole entry, looked up): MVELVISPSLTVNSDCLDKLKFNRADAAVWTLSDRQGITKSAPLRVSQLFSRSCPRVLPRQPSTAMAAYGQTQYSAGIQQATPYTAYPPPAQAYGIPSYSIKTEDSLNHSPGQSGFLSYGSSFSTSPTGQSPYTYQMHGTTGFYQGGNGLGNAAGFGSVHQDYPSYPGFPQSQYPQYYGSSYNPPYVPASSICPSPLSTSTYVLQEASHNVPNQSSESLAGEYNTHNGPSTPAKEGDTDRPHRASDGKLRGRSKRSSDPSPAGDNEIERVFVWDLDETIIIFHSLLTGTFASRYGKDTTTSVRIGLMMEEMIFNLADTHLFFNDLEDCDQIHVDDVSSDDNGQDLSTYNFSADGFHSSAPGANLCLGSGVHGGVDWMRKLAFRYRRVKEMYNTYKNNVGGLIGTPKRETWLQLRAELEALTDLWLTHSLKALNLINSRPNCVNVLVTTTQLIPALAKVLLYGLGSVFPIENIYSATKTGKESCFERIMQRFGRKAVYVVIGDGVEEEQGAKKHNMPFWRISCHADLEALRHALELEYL
Target sequence (Q15475 whole entry, looked up): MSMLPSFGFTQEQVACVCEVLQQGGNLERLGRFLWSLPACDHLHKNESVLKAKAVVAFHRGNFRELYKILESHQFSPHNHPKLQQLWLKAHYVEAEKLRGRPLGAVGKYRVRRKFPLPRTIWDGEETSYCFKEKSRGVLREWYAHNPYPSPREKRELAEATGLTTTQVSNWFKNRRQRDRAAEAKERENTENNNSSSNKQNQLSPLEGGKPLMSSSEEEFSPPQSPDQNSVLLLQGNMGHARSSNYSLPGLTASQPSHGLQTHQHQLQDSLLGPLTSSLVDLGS
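Homogeneous AlphaScreen proximity assay pairing GST-Six1 with His-tagged Eya2 (added as 5X mix: 250 nM and 500 nM) in 50 mM Tris pH 8.0, 300 mM NaCl, 1 mM TCEP. Glutathione donor and nickel acceptor beads; 1 h, 37 °C, dark.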
Sfp inh = Sfp phosphopantetheinyl transferase inhibition | Q9F4F7 | AID 1490 | Potency, µM, inactives show max response, negative = inhibition, most hits filed as inhibitors | actives 3.5% (n = 310,000) | Biochemical Sfp PPTase activity, qHTS; active = well fitted inhibition curve with a large enough effect; inconclusive = small, poorly fitted or top-dose-only effect, or another doubt; inactive = no such curve, though single readings can be large or run the other way;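 also: the enzyme is Sfp with the accession as filed and its product quenches rhodamine fluorescence; potency is read from the fitted curve at half-maximal effect; 0% = enzyme reaction without inhibitor and -100% = no enzyme wells; top concentration of the series not given in the record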
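With Hepes-Na pH 7.6 buffer containing 10 mM MgCl2, Sfp (15 nM) modified BHQ-2-YbbR (12.5 uM) using rhodamine-CoA (5 uM). Two reads 30 minutes apart at 525/598 nm yielded each well's rate.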
CtBP-E1A inh = blocks the CtBP interaction with E1A. AlphaScreen GST-E1A/His-CtBP binding, 1536-well; stronger effect = lower value; control for the full effect not named in the record. actives 0.49% (n = 340,000). activity change, % (concentration not given with the values); in the data active means activity change below about -65%; inconclusive means about -30% to -65%; inactive means above about -30%; also: % is scaled to controls: 0 for no effect and ±100 for the full control effect
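AlphaScreen with 125 nM GST-E1A and 125 nM His-CtBP (5X stocks) in Tris pH 8.0, 300 mM NaCl, BSA, Tween 20, TCEP. Compounds preincubated 2 h at 37 deg C, then glutathione donor/nickel acceptor beads added for 1 h at 37 deg C in dark.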
D2 ag = activates the human D2 dopamine receptor. P14416. DiscoveRx PathHunter D2 beta-arrestin, luminescence, 90 min; 100% = 57 uM dopamine signal. activation, % (no concentration beside the values). actives 0.084% (n = 360,000). AID 624465; in the data active = activation above about 40%; inconclusive = about 15% to 40%; inactive = below about 15%; also: compound concentration not given in the record; the text of the record calls up to 30% inactive
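DiscoveRx PathHunter D2 beta-arrestin cells (2,100/well) attached overnight, then compound-stimulated 90 min at 37 C in HBSS/10 mM HEPES/0.1% Tween-20 buffer; beta-galactosidase complementation read by luminescence after 1 h at ambient temperature. Dopamine 57 uM final (EC100) as control.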
Active calls of the source: *; ? = inconclusive; . = not tested or not shown; & = joins results of further samples; [ ] = another dose, or the depositor's remark.

SMILES	D2 PAM	TRPV1 potentiator	PINK1 modulator	Six1-Eya2 blk	Sfp inh	CtBP-E1A inh	D2 ag
CCO[C@@H]1OC(C(=O)N2CCOCC2)=C[C@H](C)[C@H]1CCCO	1	-15	3.3%	-1	-6%	4	-0.4
Cc1ccc(NC(=O)C2CCN(S(=O)(=O)c3ccc4c(c3)CCCC(=O)N4)CC2)c(Br)c1	2	-15	-0.8%&-0.4%	-1	9%	1	-4.4
Nc1nc(N)nc(-c2cc([N+](=O)[O-])ccc2O)n1	-2	-3	-1.0%	229	.	-3	-4.4
Cc1cc(=O)oc2cc(OC(C)C(=O)Nc3nccs3)ccc12 (stereo not given)	-1	3	-0.1%	0	10%	-2	-3.2
Cc1nc(Sc2nnnn2C)c2c3c(sc2n1)CCC3	8	0	1.2%	0	-1%	4	-2.6
CC(C)Sc1nnc([C@H](Cc2ccccc2)NC(=O)OC(C)(C)C)o1	-8	-27	1.8%	2	50µM*	-5	-0.7
COCCn1c(C)cc(C(=O)COC(=O)c2[nH]c(C)c(C(C)=O)c2C)c1C	-3	-20	2.5%	-7	.	0	0.0
COc1ccc(S(=O)(=O)Nc2ncccc2C)c2ccccc12	0	3	0.8%	0	14%	8	4.4
O=C(Cn1cc(C(F)(F)F)cc(Cl)c1=O)Nc1cccc(Cl)c1	-19	2	3.6%	-5	?	-16	-2.2
O=C(Nc1ccccc1)C1=C[C@H](c2ccc(Br)cc2)C[C@H](OCc2ccc(CO)cc2)O1	-7	6	0.0%	0	16%	0	-1.7
Cc1cccc(OCc2nnc(N)s2)c1	6	0	-0.8%[38.3 µM]	3	6%	7	1.3
Cc1cc(C)nc(NS(=O)(=O)c2ccc(NS(=O)(=O)c3ccsc3)cc2)n1	-1	3	2.1%	-2	-22%	.	-4.0
COc1cc(C(=O)NCc2cccc3ccccc23)ccc1OCc1ccccc1	-5	6	-0.9%	-3	22%	-5	0.1
CCOc1ccc(N2C(=O)CC(n3ccc(C)n3)C2=O)cc1 (stereo not given)	6	20	-2.2%	1	9%	3	-4.0
COc1cc(C(=O)N2CCN(C/C=C/c3ccccc3)CC2)cc(OC)c1C	-14	-13	-0.8%[38.3 µM]	-8	-3%	-8	-0.2

Another view of some results above:
SMILES,D2 PAM,TRPV1 potentiator,PINK1 modulator,Six1-Eya2 blk,Sfp inh,CtBP-E1A inh,D2 ag
Cc1ccc(NC(=O)C2CCN(S(=O)(=O)c3ccc4c(c3)CCCC(=O)N4)CC2)c(Br)c1,2,-15,-0.8%&-0.4%,-1,9%,1,-4.4
Nc1nc(N)nc(-c2cc([N+](=O)[O-])ccc2O)n1,-2,-3,-1.0%,229,.,-3,-4.4
Cc1cc(=O)oc2cc(OC(C)C(=O)Nc3nccs3)ccc12 (stereo not given),-1,3,-0.1%,0,10%,-2,-3.2
Cc1nc(Sc2nnnn2C)c2c3c(sc2n1)CCC3,8,0,1.2%,0,-1%,4,-2.6
CC(C)Sc1nnc([C@H](Cc2ccccc2)NC(=O)OC(C)(C)C)o1,-8,-27,1.8%,2,50µM*,-5,-0.7
COCCn1c(C)cc(C(=O)COC(=O)c2[nH]c(C)c(C(C)=O)c2C)c1C,-3,-20,2.5%,-7,.,0,0.0

More compounds follow:
SMILES	D2 PAM	TRPV1 potentiator	PINK1 modulator	Six1-Eya2 blk	Sfp inh	CtBP-E1A inh	D2 ag
O=C(CN1C(=O)NC2(CCCCC2)C1=O)NCc1ccc2c(c1)OCO2	-5	0	2.2%	9	-2%	-1	-9.0
O=C(CSc1n[nH]c(=O)[nH]c1=O)NC1CC1	-5	-12	0.9%	11	14%	.	-7.6
CCOC(=O)C1=NN(C(=O)COc2ccccc2)C(O)(c2ccc(Br)cc2)C1 (stereo not given)	-1	-6	0.0%	-2	4%	0	-19
C[n+]1cc(C(=O)N2CCCCC2)ccc1/C=C/c1c[nH]c2ccccc12	-15	-1	3.6%	-1	-4%	5	-3.1
Cc1ccc(N2C(=O)CC3(CCCC3)CC2=O)cc1	-10	?	1.6%	2	16%	5	0.5
CN(C(=O)COC(=O)CSc1ccc(C(N)=O)cc1[N+](=O)[O-])C1CCCCC1	-9	?	1.0%	-1	.	-2	-5.3
c1ccc(Oc2cnc3ccccc3n2)cc1	-6	-15	-1.9%	10	17%	14	-0.4
COc1ccccc1NC(=O)NC1(C)CCS(=O)(=O)C1 (stereo not given)	-5	-16	-1.3%	2	19%	0	2.4
Cc1cc(C)nc(N2CCC(C(=O)N3CCN(c4cc(Cl)ccc4C)CC3)CC2)n1	5	13	5.4%[38.3 µM]	-7	-17%	-1	1.9
CCCn1c(NC(=O)C2CCN(C(=O)c3ccc(F)cc3)CC2)nc2ccccc21	-33	1	-0.4%	-6	21%	-21	-7.8
COc1ccc(-c2nc(C#N)c(N3CCCCCC3)o2)cc1	-1	-24	.	-26	?	51	0.8
CN(CC(=O)Nc1ccccc1C(F)(F)F)C(=O)c1ccc(N2C(=O)CCC2=O)cc1	5	14	1.0%	6	.	1	-2.8
COC(CNC(=O)C1CCN(S(=O)(=O)c2cccc3nsnc23)CC1)OC	-2	-1	-1.1%	26	8%	.	-0.2
Cc1ccc(/C=C2\SC(=S)N(CC(=O)Nc3cccnc3)C2=O)cc1	-8	-3	6.6%	10	12%	9	-2.2
O=C1c2ccccc2C(=O)N1CCCP(=O)(O)CCc1ccccc1	-25	-1	-1.7%	3	8%	15	-1.2

Shown as labelled records: entries from further up
> Cc1ccc(N2C(=O)CC3(CCCC3)CC2=O)cc1
  D2 PAM: -10
  TRPV1 potentiator: ?
  PINK1 modulator: 1.6%
  Six1-Eya2 blk: 2
  Sfp inh: 16%
  CtBP-E1A inh: 5
  D2 ag: 0.5

> Cc1cc(C)nc(N2CCC(C(=O)N3CCN(c4cc(Cl)ccc4C)CC3)CC2)n1
  D2 PAM: 5
  TRPV1 potentiator: 13
  PINK1 modulator: 5.4%[38.3 µM]
  Six1-Eya2 blk: -7
  Sfp inh: -17%
  CtBP-E1A inh: -1
  D2 ag: 1.9

Continued:
SMILES	D2 PAM	TRPV1 potentiator	PINK1 modulator	Six1-Eya2 blk	Sfp inh	CtBP-E1A inh	D2 ag
O=C(CCc1ccccc1)NCc1ccccn1	5	-7	?	-4	-20%	1	0.9
CS/C(N)=N/C(=S)Nc1cccc(Cl)c1	-4	?	-1.5%	1	1%	0	2.2
CCN(CC)CCCNCC(=O)Nc1cc(C)on1	-9	8	0.9%	8	?	-6	-0.1
COc1ccccc1CC(=O)Nc1ccc(NC(=O)c2cccs2)cc1	19	2	17%	-8	22%	-5	2.3
O=[N+]([O-])c1ccc2nc(-c3ccccc3)[nH]c2c1	-16	4	2.0%	-10	7%	-10	0.7
N#C/C(=C/c1cn[nH]c1-c1ccc(Br)cc1)C(=O)O	-3	1	0.5%	-3	17%	0	2.6
CCOC(=O)c1ccc(S(=O)(=O)Nc2cc(C(=O)O)ccc2Cl)cc1	-17	23	-0.9%	5	?	9	-0.8
COc1ccccc1-n1c(CNC(=O)c2ccco2)nnc1SCC(=O)Nc1cc(C)ccc1C	-3	.	-0.1%	11	7%	-4	-7.6
S=C(c1cn(CCOc2cccc3ccccc23)c2ccccc12)N1CCCC1	-2	15	28µM*	-15	18%	-17	-1.7
C[C@@H](C(=O)Nc1ccc2ccccc2c1)[C@@H]1C[C@@]1(C)[C@@H](NC(=O)c1ccccc1)c1ccccc1	-19	14	-0.3%	6	-2%&24%	3	0.6
O=C(c1ccccc1)N1CCC(c2nc3c(nnn3Cc3ccccc3Cl)c(=O)[nH]2)CC1	-4	-1	-4.6%[38.3 µM]	-7	-27%	8	1.3
O=[N+]([O-])c1ccc(O)c(-c2cc(C(F)(F)F)nc(-c3ccccc3)n2)c1	7	-13	?	-1	-1%	.	-0.4
CCCCC(=O)Nc1c(-c2cccc(OC)c2)c(=O)c2ccccc2n1C	-9	16	-2.6%	-4	7%	-8	1.9
COc1ccc(-c2cc(C(=O)N3CCN(Cc4ccc5c(c4)OCO5)CC3)on2)cc1OC	-17	3	-1.8%	-9	1%	-25	-0.4
COc1ccc(S(=O)(=O)N2CCOCC2)cc1NC(=O)CCOc1ccc(C(C)(C)C)cc1	3	-3	2.2%	-6	.	4	4.1

Reprinted at random: 5 records from the list.
SMILES	D2 PAM	TRPV1 potentiator	PINK1 modulator	Six1-Eya2 blk	Sfp inh	CtBP-E1A inh	D2 ag
CCN(CC)CCCNCC(=O)Nc1cc(C)on1	-9	8	0.9%	8	?	-6	-0.1
N#C/C(=C/c1cn[nH]c1-c1ccc(Br)cc1)C(=O)O	-3	1	0.5%	-3	17%	0	2.6
CS/C(N)=N/C(=S)Nc1cccc(Cl)c1	-4	?	-1.5%	1	1%	0	2.2
COc1ccc(-c2cc(C(=O)N3CCN(Cc4ccc5c(c4)OCO5)CC3)on2)cc1OC	-17	3	-1.8%	-9	1%	-25	-0.4
CCOC(=O)c1ccc(S(=O)(=O)Nc2cc(C(=O)O)ccc2Cl)cc1	-17	23	-0.9%	5	?	9	-0.8

Carrying on:
SMILES	D2 PAM	TRPV1 potentiator	PINK1 modulator	Six1-Eya2 blk	Sfp inh	CtBP-E1A inh	D2 ag
Cn1c(O)c(N=NC(=O)CNC(=O)c2ccccc2)c2ccccc21	-9	6	-0.4%	7	9%	4	-2.1
CCOC(=O)c1cnc(-n2nc(C)cc2C)nc1Nc1cccc(C(=O)O)c1	3	2	1.7%	-8	7%	-5	-1.6
O=C(Nc1ccnc(-c2cccnc2)n1)c1ccccc1Cl	-3	-13	-2.9%	1	3%	-1	-1.1
Cc1ccc(Cn2nnc3c(=O)n(Cc4cccc(C)c4)cnc32)cc1	17	10	.	-2	6%	-6	-2.1
Cc1ccc(C)c(NC(NC(=O)c2cccnc2)C(Cl)(Cl)Cl)c1 (stereo not given)	-2	.	1.5%[38.3 µM]	0	5%	11	1.0
C[C@H](CO)N1C[C@H](C)[C@@H](CN(C)S(=O)(=O)c2ccccc2)OCc2cnnn2CCCC1=O	1	.	-1.1%	-4	.	2	-2.7
O=C1CCCC2=C1C(c1ccncc1)Nc1ccccc1N2 (stereo not given)	-15	13	0.8%	11	8%	-1	-0.2
Cc1cccc(C)c1NC(=O)CN(C)C(=O)CSCc1c(C)noc1C	-3	-1	1.6%	8	.	-3	-0.1
CCOc1ccccc1NS(=O)(=O)c1cccc2nsnc12	-11	5	-0.8%[38.3 µM]	-5	-6%	1	-1.0
CCc1ccc(C(=O)NNC(=O)CCN2CCN(Cc3ccccc3)CC2)cc1	-24	1	-1.0%	14	9%	-14	-3.9

High-throughput results: PubChem BioAssay, National Center for Advancing Translational Sciences (NCATS)

Compounds were not picked by outcome; overall some 3.7% were active at least once.
